High-throughput results deposited in PubChem by ICCB-Longwood Screening Facility, Harvard Medical School.
Sa helicase inh: inhibitors of S. aureus replicative helicase, primary screen, biochemical, fluorescence unwinding readout; actives 0.05% (n = 120,000); inhibition, %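 (tested at about 80 µM)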; purified S. aureus helicase, fluorescence unwinding assay; about half of the hits fall short of the stated cut; AID 485395, 2010;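 active means both duplicates at 50% or more, or one of them with a favoured structure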;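 further: 0% = mean of negative control wells and 100% = mean of positive control wells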
MgrA DNA FP: S. aureus MgrA activity modulators, primary screen, biochemical, S. aureus Newman, fluorescence polarization | inhibition, %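 (about 10 µg/mL by stock and volumes)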 | actives 0.13% (n = 84,000) | MgrA-DNA binding;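 active means above 50% in either of two replicates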;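 further: 0% = protein plus DNA without compound and 100% = DNA alone without protein; higher means less MgrA bound to DNA so lower polarization; one replicate is shown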
* hit, by the source's call; nt = no result given. A portion of the library (hit frequency here may not be typical).

SMILES | Sa helicase inh | MgrA DNA FP
O=C(NCC1CCCO1)C1c2ccccc2Oc2ccccc21 (stereo not drawn) | 7.0 | 0.8
CCOC(=O)c1c(C)noc1/C(C)=N/OC(=O)Nc1cccc(C(F)(F)F)c1 | 26.0 | nt
CC(C)(C)c1ccc(S(=O)(=O)NCc2ccc(C(=O)N3CCN(C(=O)c4ccco4)CC3)cc2)cc1 | 23.0 | 2.3
Nc1c(C(=O)c2ccccc2)no[n+]1[O-] | 8.0 | 0.8
CC(=O)NCCNCc1ccc(OCc2csc(C)n2)cc1 | -2.0 | nt
CN=Cc1ccccc1Br | -1.0 | nt
COCC(=O)Nc1cc(-c2cn3cccnc3n2)ccc1OC | 8.0 | 1.0
CCOc1nc(-c2ccccc2)nc(Cl)c1N | 1.0 | nt
CCc1ccc(NC(=O)Cc2coc3ccc(C(C)C)cc23)cc1 | 14.0 | 1.8
COc1ccc(C(=O)OCc2nnc(-c3ccccc3)o2)cc1S(=O)(=O)N1CCCCC1C (stereo not drawn) | -1.0 | nt

An excerpt of these results, comma-delimited:
SMILES,Sa helicase inh,MgrA DNA FP
O=C(NCC1CCCO1)C1c2ccccc2Oc2ccccc21 (stereo not drawn),7.0,0.8
Nc1c(C(=O)c2ccccc2)no[n+]1[O-],8.0,0.8
COCC(=O)Nc1cc(-c2cn3cccnc3n2)ccc1OC,8.0,1.0

The listing continues:
SMILES | Sa helicase inh | MgrA DNA FP
CCc1ccc(-c2cc(C)no2)cc1S(=O)(=O)N1CC(C)Sc2ccccc21 (stereo not drawn) | 18.0 | nt
CCOC(=O)c1ccc(NC(=O)N2CCC(CN3CCCCCC3)CC2)cc1 | 15.0 | nt
NC(=O)CSc1nccn1Cc1ccccc1 | -1.0 | nt
Cc1ccc(S(=O)(=O)N(C)c2ccc(C(=O)N3CCCCC3)cc2)cc1 | -11.0 | -1.1
Cc1cccc(C)c1OCCNC(=O)c1ccc2ccccc2n1 | 21.0 | nt
O=C(c1ccc2ncsc2c1)N1CCN(c2ccccc2)CC1 | -10.0 | nt
Cc1cccc(C(=O)Oc2ccc3oc(=O)sc3c2)c1 | -25.0 | nt
O=C(CN1C(=O)C2CC=CCC2C1=O)NCc1cccc(C(F)(F)F)c1 (stereo not drawn) | -9.0 | nt
CCN(CC)c1ccc(C=C2C(=O)N(C)C(=O)N(C)C2=O)o1 | -34.0 | -15.8
CCSC1=C(C#N)C(c2cccc(Cl)c2Cl)C2=C(CCCC2=O)N1 (stereo not drawn) | 4.0 | nt
CCn1cc(C(=O)NCCC2=CCCCC2)c(=O)c2cc(S(=O)(=O)N(C)C)ccc21 | -16.0 | nt
CCCN(CCC)C1=C(C(=O)c2ccccc2)N(CC(N)=O)S(=O)(=O)c2ccccc21 | -21.0 | -0.3
Cc1ccc(-n2c(SCC(=O)NC(C)(C#N)C(C)C)nnc2-c2ccccc2)cc1C (stereo not drawn) | -9.0 | nt
COc1ccc(OC)c(S(=O)(=O)Nc2ccc(C#N)cc2)c1 | nt | -1.5
Cc1ccc(C(=O)N2CCCCC2)cc1NC(=O)C1=CSCCO1 | 11.0 | nt
Oc1ccc(-c2ccccc2)cc1O | 18.0 | 3.5
Nc1ccc(-c2nnc(-c3ccc(N)cc3)o2)cc1 | 0.0 | 17.1
CCC1CN(C(=O)N2CCC(C(=O)N3CCCCC3)CC2)c2ccccc2O1 (stereo not drawn) | 12.0 | nt
CC1C/C(=N\O)c2ccccc21 (stereo not drawn) | -7.0 | nt
CC1CCCN(C(=O)CSc2nc3ccccc3o2)C1 (stereo not drawn) | -24.0 | 1.7
CC1(C)CC(=O)C(C=NCCN2CCNCC2)=C(O)C1 | 15.0 | -2.5
CCNCc1nc2ccccc2c(=O)[nH]1 | -8.0 | nt
Cc1ccc2nc3c(c(C(=O)O)c2c1)CC(C(C)(C)C)CC3 (stereo not drawn) | 3.0 | 0.7
CS(=O)(=O)Nc1ccc(C(=O)CSc2nnc3n2CCCCC3)cc1 | 2.0 | nt
CCS(=O)c1nc2c(Br)cccc2[nH]1 (stereo not drawn) | -10.0 | nt
CC(NC(=O)Cn1nc(-c2ccccc2)ccc1=O)c1ccccc1 (stereo not drawn) | 11.0 | -1.2
CC(=O)N1c2ccccc2NC2=C(C(=O)CC(C)(C)C2)C1c1ccc(-c2ccc([N+](=O)[O-])cc2C)o1 (stereo not drawn) | nt | -0.8
Cc1ccc(CN(Cc2ccco2)S(=O)(=O)c2ccc(S(=O)(=O)NC3CC3)cc2)o1 | -2.0 | -1.6
O=C(O)c1c[nH]c2c(F)cccc2c1=O | nt | 2.5
CC(NCc1cccnc1)C12CC3CC(CC(C3)C1)C2 (stereo not drawn) | 9.0 | -0.6
CNc1nc(N2CCc3ccccc32)ncc1F | 7.0 | 4.0
COC(=O)CSc1sc(=O)sc1SC | 7.0 | nt
COc1ccc(SCC(=O)c2cc(C)n(Cc3ccco3)c2C)cc1 | 15.0 | nt
COc1ccc(-n2cc(C(=O)NC3CCCc4ccccc43)nn2)cc1 (stereo not drawn) | -14.0 | nt
Cc1cc2occ(CC(=O)Oc3ccc(-c4nnco4)cc3)c2cc1C | -3.0 | nt
CC(C)n1c(=O)[nH]c2cc(C(=O)Nc3nccs3)ccc21 | -1.0 | -3.8
Cc1ccc(S(=O)(=O)NCCNc2ccc(C(F)(F)F)cc2[N+](=O)[O-])cc1 | nt | 3.3
Cc1nnc(SC(C(=O)N2CCCC2)c2ccccc2)n1N (stereo not drawn) | 2.0 | nt
CCCNC(=O)c1cccc(COc2ccccc2OC)c1 | 7.0 | 0.1
Cc1cnc(C(=O)OCC(=O)c2csc(N3CCCCC3)n2)cn1 | -7.0 | nt

Arranged by length of the SMILES (descending): some entries from above.
SMILES | Sa helicase inh | MgrA DNA FP
COc1ccc(-n2cc(C(=O)NC3CCCc4ccccc43)nn2)cc1 (stereo not drawn) | -14.0 | nt
COc1ccc(SCC(=O)c2cc(C)n(Cc3ccco3)c2C)cc1 | 15.0 | nt
CCCNC(=O)c1cccc(COc2ccccc2OC)c1 | 7.0 | 0.1
CNc1nc(N2CCc3ccccc32)ncc1F | 7.0 | 4.0

Remaining list, next part:
SMILES | Sa helicase inh | MgrA DNA FP
COc1ccc(-c2nc(CSCC(=O)NC3CC3)c(C)o2)cc1OC | 9.0 | nt
Cn1/c(=N/N=C\c2ccccc2)sc2ccccc21 | 1.0 | 5.0
C[N+]1(C)CCC[C@H]1C(=O)[O-] | nt | -6.6
CCCn1c(CC)nc2ccccc21 | -17.0 | nt
CCC(=O)NCCSc1c(-c2ccccc2)[nH]c2ccccc12 | 1.0 | nt
C=CCn1c(SCC(=O)N2CCCCC2)nc2scc(-c3ccc(C)o3)c2c1=O | -9.0 | nt
Cc1nn(C(C)(C)C)c(C)c1/C=N/O | nt | 0.3
Cc1sc2ncnc(SCCC(=O)O)c2c1C | -6.0 | nt
CCOC(=O)C1CCN(C(=O)CN2C(=O)C(CC)Oc3ccccc32)CC1 (stereo not drawn) | 11.0 | nt
O=S(=O)(CC(c1ccccc1)N1CCCCC1)c1ccc(Cl)cc1 (stereo not drawn) | nt | 1.4
CN(CC(=O)NCc1ccco1)C(=O)c1ccc(-c2ccc(Cl)cc2)s1 | -3.0 | nt
COc1ccc(/C=C2\SC(=O)N(CCNC(=O)/C=C/c3ccco3)C2=O)cc1 | 3.0 | nt
COc1cccc(N(C(=O)c2ccccc2)C2C=CS(=O)(=O)C2)c1 (stereo not drawn) | 2.0 | nt
OC1CCN(C(=S)NCCc2ccccc2)CC1 | nt | -3.9
CCCC12CN(C(=O)CC)CC(CCC)(CN(C(=O)CC)C1)C2=O | 7.0 | 1.0
CN1C(=O)C(CC(=O)O)c2ccccc21 (stereo not drawn) | 3.0 | -6.5
CC(=O)Nc1nc2c(Cl)cccc2s1 | -9.0 | -0.1
Cn1c(C(=O)N2CCC(C(=O)N3CCN(Cc4ccc5c(c4)OCO5)CC3)CC2)cc2sccc21 | 15.0 | nt
Cc1cccc(-n2c(C)cc(CNC(=O)NCC3CCCO3)c2C)c1 (stereo not drawn) | -17.0 | nt
CC1Cc2ccccc2N1C(=O)Nc1ccc2c(c1)OCO2 (stereo not drawn) | 14.0 | -2.9
COC(=O)C1=C(C)NC2=C(C(=O)CC(c3ccc(N(C)C)cc3)C2)C1c1ccc(O)c(OC)c1 (stereo not drawn) | 1.0 | 0.8
c1ccc(-c2cc(N3CCCCC3)n3cnnc3n2)cc1 | -13.0 | nt
c1ccc(-c2ccc(-c3cn4ccccc4n3)cc2)cc1 | 9.0 | 0.2
COC(=O)c1cc(Cc2ccc(N)c(C(=O)OC)c2)ccc1N | -2.0 | 3.7
O=S(=O)(/C=C/c1ccccc1)Nc1ccc(S(=O)(=O)N2CCOCC2)cc1 | 17.0 | nt
FC1(F)C2CC3CC(C2)CC1C3 | 8.0 | nt
Cc1ccc(NC(=O)c2sc3nc4c(cc3c2N)CCCC4)cc1 | -1.0 | 2.6
CN(Cc1ccccc1)Cc1csc2c1CCCC2 | 14.0 | 0.9
O=C(Cc1cccc2ccccc12)Nc1cccnc1 | 7.0 | -2.0
Cn1ccnc1C(=O)c1ccc(Cl)c(S(=O)(=O)N2CCOCC2)c1 | 19.0 | nt
CC(C)(C)N/N=C/c1ccc(O)c(O)c1O | 9.0 | nt
Cc1cc2cc(CNC(=O)Cc3ccccc3)ccc2n1C | 20.0 | nt
CC(Sc1nc2c(cnn2-c2ccc(Cl)cc2)c(=O)[nH]1)c1ccccc1 (stereo not drawn) | -17.0 | nt
CCS(=O)(=O)Nc1cccc(Oc2ccccc2)c1 | 21.0 | nt
COc1ccc(C)nc1[N+](=O)[O-] | nt | -1.9
C#CCN1C(=O)S/C(=C/c2cc(CC=C)c(O)c(OC)c2)C1=O | -41.0 | 2.8
O=C(CCC(=O)c1ccccc1)Nc1ccc(-c2ccccc2)cc1 | -9.0 | 1.3
CCCCNS(=O)(=O)c1ccc2c(c1)C(=C(C#N)C#N)c1cc(S(=O)(=O)NCCCC)ccc1-2 | -3.0 | 0.1
CN(C)C(=O)COC(=O)c1ccc(S(=O)(=O)N2CCCc3ccccc32)cc1 | -1.0 | nt
COc1cccc(C(=O)n2ccc(-c3cccs3)n2)c1 | nt | 1.6
O=C(O)Cc1ccccc1Sc1ccccc1 | nt | -0.3
CCN(CC)Cc1c(O)ccc2c1O/C(=C\c1ccc(C(=O)OC)cc1)C2=O | -33.0 | nt
CSc1sc(C#N)c2c1C(=O)CCC2 | nt | 1.5
N#C/C(=C\c1ccc([N+](=O)[O-])cc1)c1nc(-c2cc3cc(Br)ccc3oc2=O)cs1 | nt | -0.9
CCC(=O)Nc1nc(-c2ccccc2)cs1 | 0.0 | -0.7
CC1Cc2ccccc2N1S(=O)(=O)c1ccc2[nH]c(=O)[nH]c2c1 (stereo not drawn) | 5.0 | nt
Cc1ccc(CN2C(=O)CSc3ccc(NC(=O)NCc4ccccc4)cc32)cc1 | -1.0 | -0.2
NNC(=O)Cc1nc(-c2ccccc2)cs1 | -6.0 | nt
O=C(NCCOc1cccc2cccnc12)C1CC1 | 6.0 | -0.8
CCC(NC(=O)Nc1ccccc1C(=O)O)(C(F)(F)F)C(F)(F)F | 26.0 | -3.2

Additional results.
SMILES | Sa helicase inh | MgrA DNA FP
O=C(NCc1ccco1)NCc1c(-c2cccs2)n(Cc2ccccc2)c2ccccc12 | 2.0 | nt
CS(=O)(=O)Nc1ccccc1C(=O)O | 0.0 | -3.4
Cc1occc1C(=O)N/N=C/c1ccc(F)c(Br)c1 | 6.0 | 1.2
CC(NC(=O)c1ccc(CSc2ccccc2)cc1)c1ccccc1 (stereo not drawn) | -3.0 | -6.1
NC(=O)N/N=C/c1ccc(-c2ccc(Cl)cc2)o1 | 8.0 | 0.5
CC(C)(C)NC(=O)Nc1cnccc1C(F)(F)F | nt | -1.6
O=C(NCc1ccccc1)NCc1cccn1Cc1ccccc1 | 0.0 | nt
N#Cc1cc(Oc2ccc(F)cc2)c(-n2nnc3ccccc32)cc1C#N | 2.0 | -3.8
Clc1ccc(COc2ccncc2)c(Cl)c1 | nt | -0.2
COCCN1Cc2cccc(C(=O)NCCc3ccccc3)c2C1=O | 39.0 | nt

Of the compounds above, these have a cyano group.
SMILES | Sa helicase inh | MgrA DNA FP
CCSC1=C(C#N)C(c2cccc(Cl)c2Cl)C2=C(CCCC2=O)N1 (stereo not drawn) | 4.0 | nt
Cc1ccc(-n2c(SCC(=O)NC(C)(C#N)C(C)C)nnc2-c2ccccc2)cc1C (stereo not drawn) | -9.0 | nt
COc1ccc(OC)c(S(=O)(=O)Nc2ccc(C#N)cc2)c1 | nt | -1.5
CCCCNS(=O)(=O)c1ccc2c(c1)C(=C(C#N)C#N)c1cc(S(=O)(=O)NCCCC)ccc1-2 | -3.0 | 0.1
CSc1sc(C#N)c2c1C(=O)CCC2 | nt | 1.5
N#C/C(=C\c1ccc([N+](=O)[O-])cc1)c1nc(-c2cc3cc(Br)ccc3oc2=O)cs1 | nt | -0.9
N#Cc1cc(Oc2ccc(F)cc2)c(-n2nnc3ccccc32)cc1C#N | 2.0 | -3.8

Next compounds
SMILES | Sa helicase inh | MgrA DNA FP
COc1ccc(/C(C#N)=C/C(=O)O)cc1 | nt | -1.7
CCOC(=O)N1CCN(c2nc(-c3ccccc3)no2)CC1 | 20.0 | nt
Cc1ccccc1N1C(=O)CC(Nc2ccc3c(c2)OCO3)C1=O (stereo not drawn) | 9.0 | 3.5
Cn1c(CCNC(=O)c2cccs2)nnc1SCC(=O)N1CCN(c2ccccc2)CC1 | 11.0 | 0.0
COc1ccc(N2C(=O)CCC(C(=O)Nc3ccccn3)C2c2ccc(OC)c(OC)c2)cc1 (stereo not drawn) | 8.0 | nt
CCOc1ccc2c(c1)S/C(=C1\Oc3ccccc3OC1=O)N2C | -2.0 | -3.1
Cn1cnc(S(=O)(=O)Nc2ccc3c(c2)C(=O)OC3)c1 | 20.0 | nt
CC1CCCC(NC(=O)C2CCN(C(=O)N(C)C)CC2)C1C (stereo not drawn) | 10.0 | -1.2
CC(NS(=O)(=O)c1ccc2c(c1)CCC2)c1ccc(-n2ccnc2)cc1 (stereo not drawn) | -9.0 | nt
COc1ccc(-c2cc(OC(=O)c3ccco3)cc3sc(=O)oc23)cc1 | -13.0 | nt
